Anaer choline gr: blocks anaerobic gram-negative growth on choline; Gram-negative bacterium anaerobic choline minimal medium, absorbance growth; stronger effect = lower value; many inactives read as strong as hits in the columns shown; AID 1963822; calls only; hit rate 0.2% among 55,000;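 active means growth z-score on choline under -2 at 7 or 20 h with little or no fall on glycerol, limits in tiers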;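 further: stock transfer was 300 nL into about 50 µL; the organism is E. coli; final concentration not given here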
Anaer choline gr early: further read-out of Anaer choline gr, marked with its call; z-score; measured here: choline growth z-score, timepoint 1;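 score of optical density at 7 h as mean of two plates; lower means less growth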
The depositor's hits bear a star; i = inactive. Only part of the results is shown, so the mix of outcomes need not match the whole.

SMILES	Anaer choline gr	Anaer choline gr early
O=[N+]([O-])c1ccc(CNc2nc(NCc3cccc(C(F)(F)F)c3)nc3nc[nH]c23)cc1	i	0.08
COc1ccc(-c2nc(CSc3nc4ccccc4n4c(C(C)C)nnc34)c(C)o2)cc1OC	i	1.1
Cc1[nH]nc(-c2c(C)sc(C)c2S(=O)(=O)N2CCN(c3ccccc3F)CC2)c1C	i	0.39
CC(C)CNC(=O)C1CCCN(C(=O)c2ccc(NC(=O)C(C)(C)C)cc2)C1 (stereo unspecified)	i	0.95
Cc1ccc(-c2csc(NC(=O)CCc3nc(CSc4nc5cc(C)ccc5o4)no3)n2)cc1	i	1.9
CCCn1c(COc2ccccc2)nc2ccccc21	i	0.36
Cc1nc2ccccc2n(CC(=O)N2CCN(c3ccccn3)CC2)c1=O	i	-0.18
CCCS(=O)(=O)c1nc2ccc(NS(=O)(=O)Cc3ccc(Cl)cc3)cc2s1	i	-1
CCCCC[C@H](O)/C=C/[C@@H]1C(C/C=C\CCCCN(C)C)[C@@H](O)C[C@H]1O (stereo partly specified)	i	-1.3
Cc1ccc(C)c(NS(=O)(=O)c2cc3c4c(c2)CCN4C(=O)CC3)c1	i	0.95
Cc1ccc(S(=O)(=O)N2CCC3(CC2)NCCN=C3NCc2ccccc2C)cc1	i	-0.01
Cc1cc(SCC(=O)N2CCc3ccccc32)nc2ccc(S(=O)(=O)N(C)C)cc12	i	-0.09
Cc1oc(-c2ccc(Cl)cc2)nc1CSc1nc(-c2ccncc2)cc(=O)[nH]1	i	-0.14
Cc1ccccc1-c1noc(-c2ccccc2OCC(=O)Nc2nccs2)n1	i	-0.81
O=S(=O)(c1cc(-c2nnc(C3CC3)o2)cs1)N1CCOCC1	i	0.59
COc1ccc(-c2noc(-c3nn(-c4cccc(F)c4)ccc3=O)n2)cc1	i	0.44
COc1cccc(NC(=O)CCS(=O)(=O)c2cc(-c3cc(C)no3)ccc2C)c1	i	-1.1
O=C1CC(c2ccc3c(c2)OCO3)c2scc(S(=O)(=O)c3ccccc3)c2N1 (stereo unspecified)	i	0.39
CCOC(=O)c1ccccc1NC(=O)c1c(-c2ccccc2Cl)noc1C	i	1.2
Cc1cccc(N2CCN(C(=O)CCCn3nc(C)c4sc5ccccc5c4c3=O)CC2C)c1 (stereo unspecified)	i	0.26
O=C(NCCc1ccccc1)c1ccc(CSc2nc3ccncc3[nH]2)cc1	i	-0.2
Cc1csc(-c2cc(S(=O)(=O)N3CCOCC3)c(C)n2C)n1	i	-0.92
CCCSc1nc2c(c(=O)[nH]1)C(c1ccc(F)cc1)C(C(=O)OC)=C(C)N2 (stereo unspecified)	i	1.4
O=S(=O)(c1cccc2nsnc12)N1CC(OCc2ccc(Cl)cc2)C1	i	1.4
CCSc1nn(C(C)C)c2nc3c(c(=O)n12)C(C)(C)Cc1ccccc1-3	i	0.35
CCOc1ccc(NC(=O)N2Cc3cccn3-c3ccccc32)cc1	i	0.44
Cc1nc(-c2ccc(C)c(S(=O)(=O)NCC(=O)Nc3cccc(Cl)c3)c2)no1	i	1.4
Cc1ccc(S(=O)(=O)N2CCC3(CC2)NCCN=C3NCc2ccc(F)cc2)cc1C	i	0.12
O=C(NCCCN1CCN(c2ccc(F)cc2)CC1)c1cc(CN2CCOCC2)on1	i	0.12
O=C(Nc1cnn(-c2ncncc2N2CCSCC2)c1)C1CCC1	i	0.46
O=C(Nc1cccc(Br)c1)c1nc(N2CCCCC2)c2oc3ccccc3c2n1	i	0.04
CCN(CC)C(=O)c1ccc2c(c1)N(CC(=O)NCC1CCCO1)C(=O)CO2 (stereo unspecified)	i	-0.1
CCOC(=O)Cn1cnc2sc3c(c2c1=O)CCCC3	i	0.6
COc1cccc(Cn2c(C)c(C3CCN(S(=O)(=O)c4c(C)noc4C)CC3)c3ccccc32)c1	i	0.16
CC(=O)Nc1c(C)nn(-c2ccccc2)c1N1CCC(C(=O)NCc2cccnc2)CC1	i	-0.38
CN(C)CCNC(=O)c1cc(=O)nc2sc(N3CCCCC3)nn12	i	0.24
COCCNC(=O)c1c(NC(=O)c2csnn2)sc2c1CCCC2	i	1.5
Cc1cccc(-c2noc(-c3cc(C)[nH]n3)n2)c1	i	-0.62
Cc1ccc(S(=O)(=O)n2cc3c(=O)n(C(C)C)c(=O)n(C(C)C)c3n2)cc1Cl	i	0.5
Cc1cccc(CSc2nc(=O)n(Cc3ccccc3)c3c2CCC3)c1	i	1.3
CCc1onc(C)c1C1CCCN1Cc1cn(C)c2ccc(OC)cc12 (stereo unspecified)	i	0.16
CCC(C)Nc1cc(C)nc2c(C)c(-c3ccc(Cl)cc3)nn12 (stereo unspecified)	i	1.7
Cc1noc2ncnc(N3CCC(C(=O)NCCN(C)C)CC3)c12	i	-0.18
O=C(NCCC1=CCCCC1)C(=O)NCc1n[nH]c(=O)c2ccccc12	i	0.27
Fc1ccc(-c2cc3c(N4CCN(c5ccc(F)cc5)CC4)nccn3n2)cc1	i	1.1
CN(C)CC(=O)N1c2ccccc2CCc2ccc(NC(N)=O)cc21	i	-0.05
COc1ccccc1-c1nc(SCc2cc(=O)n3oc(C)cc3n2)n[nH]1	i	0.95
O=C(Nc1cccc(-c2noc(C3CCC3)n2)c1)Nc1ccc2c(c1)OCCO2	i	0.72
CC/C=C\C/C=C\C/C=C\C/C=C\C/C=C\C/C=C\CCC(=O)O	i	0.03
O=S(=O)(c1cccs1)N1CCC2(CC1)NCCN=C2NCc1cc(F)cc(F)c1	i	-0.45
CCN1C(=O)c2c(C(=O)NC3CC3)ncn2CC1(C)C(=O)NC1CCCC1 (stereo unspecified)	i	-0.14
COc1ccc(OC)c(C2C3=C(CCCC3=O)Nc3onc(C)c32)c1 (stereo unspecified)	i	0.01
Cc1nc(-c2ccc(Cl)c(S(=O)(=O)N3CCCC(C(=O)N4CCCC4)C3)c2)no1 (stereo unspecified)	i	-0.54
CCCOc1ccc(C2CC(=O)Nc3c2c(C)nn3-c2ccc3nncn3n2)cc1 (stereo unspecified)	i	0.92
Cc1c(N2CCN(C(=O)CCC3CCCC3)CC2)c(=O)n(C)c(=O)n1-c1ccccc1	i	-1.1
COc1ccc(-c2cc(C(F)(F)F)nc(SCC(=O)N3CCC(C)CC3)n2)cc1	i	-0.27
CCC(C)NS(=O)(=O)c1cc(-c2nc(C)cs2)n(CC(=O)N2CCCCC2)c1 (stereo unspecified)	i	-0.02
COc1cccc(OC)c1OCCNCC1CSc2ccccc2O1 (stereo unspecified)	i	-0.89
CN(C)c1nc2ncn3c(=O)n(CC(=O)NC4CCCC4)nc3c2s1	i	0.27
NC(=O)Cn1cnc2cc3c(cc21)OCCO3	i	-2.3
Next section
SMILES	Anaer choline gr	Anaer choline gr early
O=c1c2oc3ccccc3c2[nH]c(=S)n1C1CC1	i	1.1
CCNC(=O)c1n[nH]c2c1CCCCCC2	i	0.35
CCc1ccc(NC(=O)Cn2ncn3c(C)c(C(=O)NCc4ccccc4)c(C)c3c2=O)cc1	i	0.97
Cc1cc(=O)n2[nH]c(CN(C(=O)C(C)(C)C)c3ccccc3)nc2n1	i	-0.07
Cn1c(=O)c(=O)[nH]c2cc(-c3noc(-c4ccccc4Cl)n3)ccc21	i	-1.7
CCOc1cc(C2C3=C(CC(c4ccccc4O)CC3=O)Nc3onc(C)c32)ccc1OC (stereo unspecified)	i	-0.97
Cc1oc(C2CCN(C(=O)Cc3cccs3)CC2)nc1C(=O)N1CCSCC1	i	-1.4
COc1ccc(-c2nn(CCCC(=O)NC(C)C)c(=O)c3noc(C)c23)cc1	i	-0.77
CC(C)c1ccc(OC(=O)c2cc(-c3ccc4c(c3)OCCO4)on2)cc1	i	-0.02
O=c1[nH]c2cc(-c3noc(COc4ccc(Cl)cc4)n3)ccc2n1C1CCCC1	i	1.6
CCN1CCN(CCNC(=O)CS(=O)Cc2cnn(-c3ccccc3)c2-n2cccc2)CC1 (stereo unspecified)	i	0.3
CN(C1CCCCC1)S(=O)(=O)c1ccc2c(c1)c(=O)c(C(=O)N1CCN(c3ccccn3)CC1)cn2C	i	-2.2
O=C(NCc1ccccc1)C1CCN(c2ccncc2)CC1	i	-0.15
COc1ccc(OCC(=O)NCC(c2ccccc2)c2c[nH]c3ccccc23)cc1 (stereo unspecified)	i	1.2
Oc1ccc(Br)c(C2Nc3ccc(F)cc3[C@H]3OCC[C@@H]23)c1 (stereo partly specified)	i	-1.4
Cc1sc(-c2cc(C(F)(F)F)[nH]n2)cc1S(=O)(=O)N1CC=C(c2ccccc2)CC1	i	0.66
O=C1CCS(=O)(=O)N1c1ccc(S(=O)(=O)NCCCn2ccnc2)cc1	i	0.31
O=C(CCC1CCCC1)NC(c1ccc(F)cc1)c1nnc(-c2ccccc2)o1 (stereo unspecified)	i	0.7
Cc1ccc(-c2ccc(-n3nc(C)c(S(=O)(=O)Nc4ccc(F)cc4)c3C)nn2)cc1	i	0.46
O=C(Nc1ccc2c(c1)OCO2)c1ccc(=O)n(Cc2ccc(Cl)cc2)c1	i	-0.32
CC1(C(=O)NC2CCCCC2)CCC(=O)N1CCc1ccccc1 (stereo unspecified)	i	1.2
O=C1CN(Cc2ccccc2Cl)S(=O)(=O)c2ccccc2N1Cc1ccccc1F	i	0.48
COc1ccc(C2CC(=O)C3=C(C2)Nc2ncnn2C3c2cccc(F)c2)cc1 (stereo unspecified)	i	0.42
CO[C@H]1[C@@H]([C@@]2(C)O[C@@H]2CC=C(C)C)[C@]2(CC[C@H]1OC(=O)/C=C/C=C/C=C/C=C/C(=O)O)CO2	i	0.5
CC1=C(c2cccc(Br)c2)S(=O)(=O)N(Cc2ccc(C(=O)NC(C)C)cc2)C1=O	i	0.88
CN(C)CCN1C(C(=O)c2ccccc2)=C(OC(=O)C(C)(C)C)c2ccccc2S1(=O)=O	i	0.23
O=c1c(Nc2ccccc2)c(-c2ccc(Cl)cc2)c1=O	i	0.04
CCC(=O)N1CCc2cc(N3CC(C(=O)NCC(C)C)CC3=O)ccc21 (stereo unspecified)	i	-1.7
Cc1cccc(-n2c(=O)[nH]c3c(C(N)=O)nc(-c4cccnc4)nc32)c1	i	-0.34
COc1ccc(NS(=O)(=O)c2cc(-c3cc(C)[nH]n3)ccc2C)cc1OC	i	-0.33
COc1ccc(-n2c(=O)c3ccccc3n(CC(=O)NC3CCCC3)c2=O)cc1OC	i	1
CN(C)c1ccc(C(CNC(=O)c2ccc(Br)cc2)N2CCOCC2)cc1 (stereo unspecified)	i	0.68
O=C(Cc1ccccc1)Nc1ccc(Cn2cnc(-c3nc(-c4ccc(F)cc4)no3)c2)cc1	i	-0.44
COc1ccc(NC(=O)Nc2cc3[nH]c(=O)[nH]c3cc2C)cc1	i	-0.25
CCCCC[C@H](O)/C=C/[C@H]1CC[C@@H](O)[C@@H]1CCCCCCC(=O)O	i	0.9
COc1cccc(NC(=O)c2cc(=O)n3c(nc4ccccc43)s2)c1	i	0.62
Cc1cccc(-c2cc(N3CCN(S(=O)(=O)c4ccc(F)cc4)CC3)ncn2)c1	i	-0.47
COc1cc2c(C(=O)N3CCOCC3)c(C)n(-c3ccccc3)c2cc1Br	i	-1.8
COc1ccc(-n2nc(C(=O)Nc3ccc(F)c(Cl)c3)c(=O)n(C)c2=O)cc1	i	0.65
O=c1[nH]c(N2CCCCC2)nc2ncc3c(c12)CCC3	i	-0.13

Some of the entries above in another layout.
| Molecule | Anaer choline gr | Anaer choline gr early |
| --- | --- | --- |
| COc1ccc(NS(=O)(=O)c2cc(-c3cc(C)[nH]n3)ccc2C)cc1OC | i | -0.33 |
| COc1ccc(-n2c(=O)c3ccccc3n(CC(=O)NC3CCCC3)c2=O)cc1OC | i | 1 |
| CN(C)c1ccc(C(CNC(=O)c2ccc(Br)cc2)N2CCOCC2)cc1 (stereo unspecified) | i | 0.68 |

Later entries
SMILES	Anaer choline gr	Anaer choline gr early
Cc1cc2c(cc1S(=O)(=O)N(C)CC(=O)N1CCOCC1)OC(C)C(=O)N2 (stereo unspecified)	i	-0.94
O=c1c2oc3ccccc3c2nc(SCc2nc(-c3ccccc3)no2)n1CC1CCCO1 (stereo unspecified)	i	1.4
Cc1cccc(OCC(=O)Nc2ncn(Cc3ccc(Cl)cc3)n2)c1	i	-0.18
CCOc1ccc(CNC(=O)C(CC)n2nc(C)c3sc4ccccc4c3c2=O)cc1OC (stereo unspecified)	i	1.2
Cc1nn(CC(=O)N2CCN(C)CC2)c(=O)c2c(-n3cccc3)n(-c3ccccc3)nc12	i	-0.45
Cc1ccc2nc(-c3ccc(NC(=O)c4ccc5c(c4)OCCO5)cc3)sc2c1	i	0.41
C=CCN1C(=O)C2(c3ccccc31)c1c(oc3cc(C)c(C)cc3c1=O)C(=O)N2CC1CCCO1 (stereo unspecified)	i	0.52
CCCNC(=O)C1CCN(Cc2c(C)n(CC)c3ccccc23)CC1	i	0.83
Oc1ccc(-c2nc3cnc(Br)cn3c2Nc2ccc3c(c2)OCCO3)cc1	i	0.41
O=C1N(Cc2ccccc2)CCN1C1CCN(S(=O)(=O)c2cccc(Cl)c2)CC1	i	-0.35

Gathered by group, those above containing an aryl thioether with sulfur outside any ring.
SMILES	Anaer choline gr	Anaer choline gr early
COc1ccc(-c2nc(CSc3nc4ccccc4n4c(C(C)C)nnc34)c(C)o2)cc1OC	i	1.1
Cc1ccc(-c2csc(NC(=O)CCc3nc(CSc4nc5cc(C)ccc5o4)no3)n2)cc1	i	1.9
Cc1cc(SCC(=O)N2CCc3ccccc32)nc2ccc(S(=O)(=O)N(C)C)cc12	i	-0.09
Cc1oc(-c2ccc(Cl)cc2)nc1CSc1nc(-c2ccncc2)cc(=O)[nH]1	i	-0.14
O=C(NCCc1ccccc1)c1ccc(CSc2nc3ccncc3[nH]2)cc1	i	-0.2
CCCSc1nc2c(c(=O)[nH]1)C(c1ccc(F)cc1)C(C(=O)OC)=C(C)N2 (stereo unspecified)	i	1.4
CCSc1nn(C(C)C)c2nc3c(c(=O)n12)C(C)(C)Cc1ccccc1-3	i	0.35
Cc1cccc(CSc2nc(=O)n(Cc3ccccc3)c3c2CCC3)c1	i	1.3
COc1ccccc1-c1nc(SCc2cc(=O)n3oc(C)cc3n2)n[nH]1	i	0.95
COc1ccc(-c2cc(C(F)(F)F)nc(SCC(=O)N3CCC(C)CC3)n2)cc1	i	-0.27
O=c1c2oc3ccccc3c2nc(SCc2nc(-c3ccccc3)no2)n1CC1CCCO1 (stereo unspecified)	i	1.4

Screening data deposited in PubChem by ICCB-Longwood Screening Facility, Harvard Medical School.
